High-throughput results as filed in PubChem.
Menin MLL FP FL = inhibitors of human menin-MLL interaction, wild-type MLL peptide | Fluorescence polarization, fluorescein-MLL peptide displacement from menin | FP activity change, % at 61.4 µM | 290,000 tested, under 10 active | AID 1766; inconclusive = falling polarisation curve, or a change in total fluorescence; inactive = total fluorescence flat and polarisation flat or rising; no compound was filed as active; the % refers to the polarisation; negative = inhibition;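 further: % of control where 0% means no effect; inhibitors lower the polarisation; unlabelled MLL peptide was the positive control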
gsp ag = gsp mutant agonism; gsp mutant cells, cAMP HTRF, 30 min; control for the full effect not named in the record; Potency, µM (highest dose often 76.9 µM), for the others: top-dose activation (cAMP increase), usual class: activators; 340,000 tested, 0.13% active; AID 624287; active = well fitted activation curve with a large enough effect; inconclusive = small, poorly fitted or top-dose-only effect, or another doubt; inactive = no such curve, though single readings can be large or run the other way; cell line not stated here;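 further: phosphodiesterase inhibitor Ro 20-1724 added with compounds to block cAMP breakdown; potency means the concentration at half of the fitted maximal effect; nearly all actives have a fitted effect of over 60% in size; about a fifth of the inactives were tested at one dose only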
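Cells stably selected in G418 were plated at 2000/well, grown 16-24 hr, then given compounds in DMSO with the PDE inhibitor […] (300 uM solution added) for 30 min at 37C; cAMP was read by HTRF.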
TRPML1 agonist = activates the human TRPML1 channel; TRPML1-expressing cells, Ca2+ dye fluorescence, FDSS; host cell line not named in the record; reference of the full effect not given here; activation, % (concentration not given with the values); 410,000 tested, 0.12% active; AID 624414; in the data active = activation above about 50%; inconclusive = about 30% to 50%; inactive = below about 30%; further: 0% is about no effect; the text of the record puts the active cut at 80%
Target sequence (Q9GZU1 whole entry, looked up): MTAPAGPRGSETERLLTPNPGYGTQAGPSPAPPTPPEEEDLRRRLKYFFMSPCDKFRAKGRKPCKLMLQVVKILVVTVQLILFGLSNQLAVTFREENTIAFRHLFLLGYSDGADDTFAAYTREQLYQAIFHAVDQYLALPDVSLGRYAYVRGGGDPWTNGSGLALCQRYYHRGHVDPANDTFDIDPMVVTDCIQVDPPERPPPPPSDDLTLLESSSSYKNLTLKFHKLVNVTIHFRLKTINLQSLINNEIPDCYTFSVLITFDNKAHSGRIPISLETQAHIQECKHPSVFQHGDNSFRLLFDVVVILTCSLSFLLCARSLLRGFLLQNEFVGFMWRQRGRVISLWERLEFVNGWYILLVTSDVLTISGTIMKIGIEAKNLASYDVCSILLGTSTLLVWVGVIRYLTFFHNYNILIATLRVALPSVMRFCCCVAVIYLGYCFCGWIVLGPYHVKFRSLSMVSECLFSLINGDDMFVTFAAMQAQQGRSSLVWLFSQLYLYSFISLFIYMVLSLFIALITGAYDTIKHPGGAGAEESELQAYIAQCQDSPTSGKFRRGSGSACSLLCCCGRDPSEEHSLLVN
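Calcium fluorescence on an FDSS kinetic reader gave the read-out. Tet-induced TRPML1-DL cells were plated overnight, dye-loaded (Ca8 with quencher, 45-90 min, room temperature, dark), then read 110 s after compound addition, and again 110 s after 4uM final 54-4 (EC80).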
gsp antagonist = antagonists of gsp mutant (McCune-Albright syndrome); gsp-mutant cells, cAMP HTRF, 30 min; control for the full effect not named in the record; Potency, µM (series often up to 76.9 µM), without a hit: top-dose activity change, negative = inhibition, hits mostly inhibitors; 340,000 tested, 0.4% active; AID 624288; active = falling curve of any shape with a large fitted effect; inconclusive = falling curve, mostly with a smaller effect; inactive = flat or rising curve; cell line not stated here;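 further: intracellular cAMP measured with PDE inhibitor Ro 20-1724 present during compound exposure; potency means the concentration at half of the fitted maximal effect; on the % scale 0 is the no-effect control and ±100 the full control effect; nearly all actives have a fitted effect of over 65% in size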
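Cells in G418 medium, seeded 16-24 h, 37C; buffer exchange to DPBS + 1 mM CaCl2, 0.5 mM MgCl2, 0.05% BSA; cpds in DMSO + […] (300 uM stock), 30 min 37C; HTRF cAMP detection.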
ClpP mod = qHTS Assay for Activators of ClpP; ATP-dependent Clp protease proteolytic subunit (Bacillus subtilis (strain 168)), P80244; purified B. subtilis ClpP, FRET peptide cleavage, 20 min; Potency, µM (highest dose often 57.5 µM), inactives show at the top dose activity change, negative = active; 340,000 tested, 1.9% active; AID 651965, 2013; active = well fitted falling curve with a large enough effect; inconclusive = small, poorly fitted or top-dose-only effect; inactive = no such curve, though single readings can be large or run the other way; further: potency means the concentration at half of the fitted maximal effect; the source files actives as falling curves though it sought activators and does not explain the sign; nearly all actives have a fitted effect of over 65% in size; many hits overshoot -100%
Target sequence (P80244 whole entry, looked up): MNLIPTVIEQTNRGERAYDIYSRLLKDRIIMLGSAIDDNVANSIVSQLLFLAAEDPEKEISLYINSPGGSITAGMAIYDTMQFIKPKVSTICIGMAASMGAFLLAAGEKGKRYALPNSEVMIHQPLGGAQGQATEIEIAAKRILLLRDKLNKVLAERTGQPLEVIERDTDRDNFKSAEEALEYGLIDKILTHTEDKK
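Purified B. subtilis ClpP, 10 microg/mL final in Tris/HCl pH8 with KCl, BSA, glycerol and Tween-20, cleaved an Abz/nitrotyrosine-quenched decapeptide. Fluorescence (ex 320, em 430) was read at 0 and 20 min at room temperature. Delta was normalized to 5.8 microM ADEP and DMSO/no-enzyme controls.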
TRPML1 inh = human mucolipin-1 channel inhibition; Q9GZU1; TRPML1-inducible cells, Ca2+ dye fluorescence, FDSS; stronger effect = lower value; inhibition of EC80 agonist-evoked calcium signal; activity change, negative = inhibition, % (concentration not given with the values); 390,000 tested, 0.02% active; AID 624415; in the data active means activity change below about -50%; inconclusive means about -30% to -50%; inactive means above about -30%;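 further: stimulus is agonist 54-4 at its EC80 concentration; on the % scale 0 is the no-effect control and ±100 the full control effect; compound concentration not given in the record; the text of the record puts the active cut at -80%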
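Calcium fluorescence in TRPML1-DL cells induced overnight with Tet: a 110 s read after compound pin addition, then a 110 s antagonist read after challenge with 54-4 at 4 uM final (EC80).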
Numbers without * were called inactive; & = joins results of further samples; [ ] = dose if it differs, or a comment. Rows were taken by chance (roughly 2.1% active in at least one column).

How did CCC1CCCCN1S(=O)(=O)c1ccc(N2CCCCS2(=O)=O)cc1 (configuration not stated) do in these assays?
TRPML1 agonist: -0.4; ClpP mod: -0.8%; TRPML1 inh: -30

What do the screens show for `O=C(/C=C/c1ccccc1)c1c[nH]c2ccccc12`?
Menin MLL FP FL: 0.5; gsp ag: 19%; TRPML1 agonist: 1.5; gsp antagonist: 8%; ClpP mod: -3.1%; TRPML1 inh: 24

What do the screens show for `COc1cc(CN2CCC(Cc3ccccc3)CC2)cc([N+](=O)[O-])c1O`?
Menin MLL FP FL: 0.2; gsp ag: 5%; TRPML1 agonist: 0.8; gsp antagonist: inconclusive; ClpP mod: 2.9%; TRPML1 inh: inconclusive

Results for COc1cccc(NC(=O)c2nn(C)c(C(=O)Nc3cccc(OC)c3)c2[N+](=O)[O-])c1 ?
Menin MLL FP FL: -3.3; gsp ag: -2%[15.4 µM]; TRPML1 agonist: 1.3; gsp antagonist: -17%; ClpP mod: -0.1%; TRPML1 inh: -9

What do the screens show for `COc1ccc(OC)c(Nc2cc(C(=O)NCc3ccccc3)c3ccccc3n2)c1`?
TRPML1 agonist: 0.2; ClpP mod: -8.2%; TRPML1 inh: 2

What do the screens show for `COc1ccc(C(CNC(=O)c2cc(S(=O)(=O)N3CCCC3)ccc2Cl)N2CCCC2)cc1` (configuration not stated)?
gsp ag: -4%; TRPML1 agonist: 0.1; gsp antagonist: 5%; ClpP mod: -1.2%; TRPML1 inh: 8

What do the screens show for `COCCCn1c(-c2ccco2)nc2ccccc2c1=O`?
Menin MLL FP FL: 4.9; gsp ag: 12%; TRPML1 agonist: -0.3; gsp antagonist: inconclusive; ClpP mod: 0.4%; TRPML1 inh: 19

Results for CCOc1cc(/C=N/NC(=O)c2nn(C)cc2Br)ccc1OCc1ccccc1Cl ?
Menin MLL FP FL: 0.1; gsp ag: -15%; TRPML1 agonist: 0.2; gsp antagonist: inconclusive; ClpP mod: inconclusive; TRPML1 inh: -4

Results for CCOc1ccc(C(=O)Cn2cnc3ccccc3c2=O)cc1 ?
Menin MLL FP FL: 4.6; gsp ag: 17%; TRPML1 agonist: -0.1; gsp antagonist: 0%; TRPML1 inh: 12

How did Cc1cc(C)cc(NC(=O)CSc2nc3c(c(=O)n2C)SC(C)C3)c1 (configuration not stated) do in these assays?
Menin MLL FP FL: 3.8; gsp ag: -28%; TRPML1 agonist: 1.6; gsp antagonist: -19%; ClpP mod: -9.7%; TRPML1 inh: 59

How did CCOc1ccc(CCNC(=O)CCc2cn(Cc3ccc(F)cc3)c3ccccc23)cc1 do in these assays?
TRPML1 agonist: 0.3; ClpP mod: -30%; TRPML1 inh: 32

Results for COc1ccc(S(=O)(=O)N2CCOCC2)cc1NC(=O)CN1CCCCCC1 ?
Menin MLL FP FL: -6.4; gsp ag: -9%[15.4 µM]; TRPML1 agonist: -0.7; gsp antagonist: 17%; ClpP mod: 0.4%; TRPML1 inh: -1

What do the screens show for `COc1ccc(C2CC(c3cccc(C)c3)n3nc(N)nc3N2)cc1` (configuration not stated)?
Menin MLL FP FL: 5.1; gsp ag: -4%; TRPML1 agonist: 0.1; gsp antagonist: 7%; ClpP mod: -9.2%; TRPML1 inh: -14

How did CCCn1cc(S(=O)(=O)c2cccc(Cl)c2)c(=O)c2cc(F)c(N3CCOCC3)cc21 do in these assays?
TRPML1 agonist: 0.4; ClpP mod: -13%; TRPML1 inh: -7

How did CCN1C(=NCCOC)N[C@@H](CCc2ccccc2)[C@H](C(=O)OC)[C@H]1C do in these assays?
Menin MLL FP FL: 1.4&-2.0; gsp ag: -11%; TRPML1 agonist: -1.2; gsp antagonist: 3%; ClpP mod: -3.1%; TRPML1 inh: -6

How did COc1ccc(/C=N/c2nc3ccccc3n2C)cc1OC do in these assays?
Menin MLL FP FL: 0.8; gsp ag: -23%; TRPML1 agonist: 0.7; gsp antagonist: 2%; ClpP mod: 0.2%; TRPML1 inh: 6

Results for CC(C)c1nc2sc3c(NCc4ccco4)ncnc3c2c2c1COC(C)(C)C2 ?
Menin MLL FP FL: 10; gsp ag: 26%; TRPML1 agonist: 3.7; gsp antagonist: 24%; ClpP mod: -20%; TRPML1 inh: 25

How did Cc1cc(C)nc(/N=C(\N)Nc2ccc(CC(=O)OC(C)C)cc2)n1 do in these assays?
Menin MLL FP FL: -2.2; gsp ag: 2%; TRPML1 agonist: 68*; gsp antagonist: 3%; TRPML1 inh: 12

Results for CCOC(=O)c1cc(-c2ccc(OC)cc2)n(CCC(=O)NCCc2ccccc2)c1C ?
TRPML1 agonist: 1.7; ClpP mod: -3.1%; TRPML1 inh: 20

What do the screens show for `Cc1nc2ccccc2n1Cc1ccc(Br)cc1`?
gsp ag: 9%[15.4 µM]; TRPML1 agonist: 0.4; gsp antagonist: -16%; TRPML1 inh: -4

How did CCOc1ccccc1OCCCC(=O)ON=C(N)c1ccccc1 do in these assays?
gsp ag: 8%; TRPML1 agonist: -0.5; gsp antagonist: -2%; ClpP mod: 0.1%; TRPML1 inh: 1

How did CC1(OC(=O)C2CCCC2)C(=O)C=C2C=C(c3ccsc3)N(CCCCO)C=C2C1=O (configuration not stated) do in these assays?
Menin MLL FP FL: -10[11.7 µM]; gsp ag: 28%; TRPML1 agonist: -0.7; gsp antagonist: -6%; ClpP mod: 1.3%; TRPML1 inh: -10

What do the screens show for `Cc1cccnc1Nc1ncnc(N)c1[N+](=O)[O-]`?
Menin MLL FP FL: -1.9; gsp ag: 1%[15.4 µM]; TRPML1 agonist: -0.1; gsp antagonist: 9%; TRPML1 inh: 10

What do the screens show for `Cc1cc(C)n(/N=C/c2ccc(C(C)C)cc2)c(=O)c1C#N`?
Menin MLL FP FL: inconclusive; gsp ag: -2%; TRPML1 agonist: 2.2; gsp antagonist: -8%; ClpP mod: 1.1%; TRPML1 inh: -8

What do the screens show for `CCNc1nc2c(c(=O)n(C)c(=O)n2C)n1Cc1ccc(Cl)cc1`?
Menin MLL FP FL: 0.5; gsp ag: -36%[inhibitor]; TRPML1 agonist: -0.3; gsp antagonist: 6%; ClpP mod: 0.4%; TRPML1 inh: -19

What do the screens show for `COc1cc(CNC(=O)c2nc(Cn3nc(C)c(Br)c3C)no2)cc(OC)c1`?
Menin MLL FP FL: 0.7; gsp ag: -28%; TRPML1 agonist: 1.7; gsp antagonist: -10%; ClpP mod: -1.1%; TRPML1 inh: -3

Results for O=C(NN=C1CCCC1)c1ccccc1O ?
Menin MLL FP FL: 0.3; gsp ag: 5%[15.4 µM]; TRPML1 agonist: -0.1; gsp antagonist: -4%; ClpP mod: 0.5%; TRPML1 inh: 2

What do the screens show for `CC(=O)N1CCC(C(=O)Nc2ccc(S(=O)(=O)N3CCCC(C)C3)cc2)CC1` (configuration not stated)?
gsp ag: 8%; TRPML1 agonist: 0.6; gsp antagonist: 7%; ClpP mod: -2.6%; TRPML1 inh: 4

How did O=C(Nc1cc(=O)[nH]c2ncnn12)c1ccccc1F do in these assays?
Menin MLL FP FL: 2.3; gsp ag: -8%; TRPML1 agonist: -0.6; gsp antagonist: -16%; ClpP mod: 0.4%; TRPML1 inh: 10

Results for COC(=O)c1cccc(N2C(=O)C(Cl)=C(N3CCOCC3)C2=O)c1 ?
Menin MLL FP FL: -0.8; gsp ag: 0%; TRPML1 agonist: -1.0; gsp antagonist: 2%; ClpP mod: -1.1%; TRPML1 inh: 1

Results for O=C(N/N=C/c1ccccc1)c1[nH]ncc1Br ?
Menin MLL FP FL: -2.1; gsp ag: 14%[15.4 µM]; TRPML1 agonist: -0.1; gsp antagonist: -3%; TRPML1 inh: 8

What do the screens show for `COc1cccc(N2CCN(c3ccc(S(=O)(=O)N4CCN(C)CC4)cc3[N+](=O)[O-])CC2)c1`?
gsp ag: -1%[15.4 µM]; TRPML1 agonist: -0.7; gsp antagonist: -4%; ClpP mod: 0.0%; TRPML1 inh: 6

What do the screens show for `Cn1c(CN(O)S(=O)(=O)c2ccc(Cl)cc2)nnc1C(F)(F)F`?
Menin MLL FP FL: 1.8; gsp ag: 27%; TRPML1 agonist: -0.5; gsp antagonist: 4%; ClpP mod: -0.9%; TRPML1 inh: -15

Results for CCCC(C)NC(=O)Cn1c(=O)c2c(ncn2CCC(C)C)n(Cc2ccccc2)c1=O (configuration not stated) ?
Menin MLL FP FL: 5.0; gsp ag: -20%; TRPML1 agonist: 2.0; gsp antagonist: -10%; TRPML1 inh: -13

How did CC1=CC(C)(C)N(C(=O)CCl)c2cc(C)ccc21 do in these assays?
Menin MLL FP FL: -5.3; gsp ag: -23%; TRPML1 agonist: 16; gsp antagonist: -6%; TRPML1 inh: 0

What do the screens show for `Cc1csc(NC(=O)c2ccc3c(c2)OCO3)n1`?
Menin MLL FP FL: 9.5; gsp ag: 2%; TRPML1 agonist: -0.2; gsp antagonist: -22%; TRPML1 inh: 15

How did O=C(O)COCC(=O)Nc1cc(C(F)(F)F)cc(C(F)(F)F)c1 do in these assays?
Menin MLL FP FL: 18; gsp ag: -21%; TRPML1 agonist: -0.1; gsp antagonist: 11%; ClpP mod: -0.2%; TRPML1 inh: 17

What do the screens show for `COc1ccc2c(CCNC(=O)c3ccc([N+](=O)[O-])cc3)c[nH]c2c1`?
Menin MLL FP FL: -0.8; gsp ag: 2%; TRPML1 agonist: -1.2; gsp antagonist: -15%; TRPML1 inh: -4

Results for O=C(CN(c1ccccc1)S(=O)(=O)c1ccc(F)cc1)N1CCCCCC1 ?
Menin MLL FP FL: 4.2; gsp ag: -1%; TRPML1 agonist: -0.2; gsp antagonist: -2%; ClpP mod: -2.1%; TRPML1 inh: 10

How did COC(=O)c1cc(Br)c(=O)n(Cc2ccc3c(c2)OCO3)c1 do in these assays?
Menin MLL FP FL: -4.2; gsp ag: 0%; TRPML1 agonist: -1.4; gsp antagonist: 4%; ClpP mod: -1.4%; TRPML1 inh: -4

What do the screens show for `COc1ccc(NC(=O)Nc2ccc([N+](=O)[O-])cc2)cn1`?
Menin MLL FP FL: inconclusive; gsp ag: -6%[15.4 µM]; TRPML1 agonist: -0.5; gsp antagonist: 1%; TRPML1 inh: -6

What do the screens show for `Cc1ccc2c(c1)[C@H]1OCC[C@H]1[C@@H](c1ccncc1)N2`?
Menin MLL FP FL: -0.5; gsp ag: -34%[inhibitor]; TRPML1 agonist: 1.2; gsp antagonist: 4%; ClpP mod: -0.6%; TRPML1 inh: 4
